Screening data as filed in PubChem.
Sa helicase inh: inhibitors of S. aureus replicative helicase, primary screen, biochemical, fluorescence unwinding readout; replicative DNA helicase (DnaC/DnaB), Staphylococcus aureus; purified S. aureus helicase, fluorescence unwinding assay; about half of the hits fall short of the stated cut; inhibition, %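 (tested at about 80 µM)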; actives 0.05% (n = 120,000); AID 485395, 2010;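 active = both duplicates at 50% or more, or one of them with a favoured structure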;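 note: 0% = mean of negative control wells and 100% = mean of positive control wells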
MgrA-DNA mod: S. aureus MgrA activity modulators, primary screen, biochemical, S. aureus Newman, fluorescence polarization | MgrA-DNA binding | inhibition, %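 (about 10 µg/mL by stock and volumes)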 | actives 0.13% (n = 84,000) | AID 602314, 2012;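 active = above 50% in either of two replicates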;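 note: 0% = protein plus DNA without compound and 100% = DNA alone without protein; higher means less MgrA bound to DNA so lower polarization; one replicate is shown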
Numbers without * were called inactive; / = no result given. Not all compounds are listed; count on the stated rates, not on these rows.

Start of the data: the first 3 compounds as a preview:
Sa helicase inh	MgrA-DNA mod	canonical_smiles
-2	5.9	COc1ccc(C(=O)OCC(=O)N(C)Cc2ccccc2)cc1
-3	/	O=S1(=O)CC2SC(=S)N(Cc3ccccc3)C2C1 (stereo unspecified)
-5	/	Cc1nc2ccc(CCO)cc2s1

The list itself (from the top)
Sa helicase inh	MgrA-DNA mod	canonical_smiles
-2	5.9	COc1ccc(C(=O)OCC(=O)N(C)Cc2ccccc2)cc1
-3	/	O=S1(=O)CC2SC(=S)N(Cc3ccccc3)C2C1 (stereo unspecified)
-5	/	Cc1nc2ccc(CCO)cc2s1
18	/	Cc1cc(/C=C(\C#N)C(=O)O)c(C)n1CC1CCCO1 (stereo unspecified)
18	-0.4	Cc1cc(N=CNc2ccc(Br)c(C)c2)ccc1Br
-6	2.1	Cc1cccc(NS(=O)(=O)c2ccccc2)n1
-5	0.9	Cc1cc(C)c2c(CC(=O)N3CCCC3)coc2c1
10	/	O=C(NCc1ccc(F)cc1)c1cc2c(=O)[nH]c3ccccc3c2s1
-5	-1.8	CCOc1ccc(C=Nc2ccc3c(c2)ncn3C)cc1
-24	/	O=C1Cn2c(nc3ccccc3c2=O)CN1Cc1ccc(Cl)cc1Cl
-20	/	O=C(COc1ccccc1)Nc1ccccc1-c1nc2ccccc2o1
5	1.3	c1ccc(Sc2ncnc3c2oc2ccccc23)nc1
/	-1.4	CC(=O)N1N=C(c2c(-c3ccccc3)c3cc(Cl)ccc3[nH]c2=O)CC1c1cccc(Br)c1 (stereo unspecified)
/	8.4	Cc1ccc(C2CC(C(F)(F)F)n3ncc(C(=O)N4CCN(C(c5ccccc5)c5ccccc5)CC4)c3N2)cc1 (stereo unspecified)
/	0.5	Cc1c(C)c(C)c(CSC2CC(=O)N(c3ccccc3)C2=O)c(C)c1C (stereo unspecified)
7	/	Cn1ncc2c(NNC(=O)C3CCCCC3)ncnc21
-10	-0.3	Cc1ccc(-c2c(C#N)c(SCC(=O)c3ccc(F)cc3)nc3c2CCCC3)o1
-2	/	CCCCN(CC)c1nc(C(=O)OCC)nc2ccccc12
2	0.1	CCNc1nc2c(C)cccc2s1
5	-0.2	O=C(NCc1cccnc1)c1cn(C2CC2)c2cc(N3CCN(C(=O)c4cccc(Cl)c4)CC3)c(F)cc2c1=O
9	-1.5	O=C1c2ccccc2C(=O)N1Cc1ccccn1
-8	/	N#Cc1ccc(OCC(=O)Nc2cc(-c3ccccc3)nn2-c2ccccc2)cc1
5	/	COC(=O)c1c(C)[nH]c(C(=O)C(C)n2nnc(-c3ccc(C)cc3)n2)c1C (stereo unspecified)
/	2.8	CSc1sc(C(=O)O)c(C)c1C(C)=O
/	1.3	CCOC(=O)C(NC(=O)c1cc2ccccc2s1)C(=O)OCC
8	/	O=C1COc2ccc(C(=O)COC(=O)[C@@H]3CCCN3S(=O)(=O)c3ccc(Cl)cc3)cc2N1
9	1.0	COc1ccc(C2C(C(=O)NCCc3ccc(OC)c(OC)c3)c3ccccc3C(=O)N2C)cc1 (stereo unspecified)
2	4.7	CC(C)(c1ccccc1)c1cc(CN2CCOCC2)c(O)c(CN2CCOCC2)c1
0	1.9	Cc1scc(CSCC(=O)O)c1C
-5	/	Cc1ccc(NC(=O)CN(C)C(=O)Cn2ncc(Cl)c(Cl)c2=O)cc1
0	1.8	CCc1ccc(NC(=O)CC(NCc2ccccc2)C(=O)O)cc1 (stereo unspecified)
-6	-1.3	O=C(NCc1ccc(Cl)cc1)c1cc2ccccc2oc1=O
/	-1.4	Cc1cc(Br)c(N2C(=O)CCC2=O)c(Br)c1
19	4.0	O=C(O)c1ccc(N/C=C/C(=O)c2ccccc2)cc1
15	-1.5	CCCOc1ccc(-c2cnc(=S)[nH]c2N)cc1
/	6.2	CCOc1cc([N+](=O)[O-])cc(/C=C2/SC(=Nc3ccccc3)NC2=O)c1O
/	-0.6	ONC(=Nc1cccc(C(F)(F)F)c1)c1ccccc1
-5	-0.1	COC(=O)c1ccccc1NC(=O)c1c(C)nc2ccccn12
-72	/	Cc1nc(-c2ccc(-c3cccs3)s2)sc1-c1ccnn1C(=O)c1cccs1
-4	-2.1	COc1ccc(Nc2nc(-c3ccccc3)cs2)cc1
-17	/	CCCCN1CCC(N)=NC1=O
4	-3.3	O=C(O)c1cnc(-c2ccc(Cl)cc2)nc1
7	/	CC(C)n1nc(C(=O)OCc2nc(N)nc(Nc3ccccc3)n2)c2ccccc2c1=O
6	11	Cc1cc(=S)n2c([nH]c3ccccc32)c1C#N
8	-2.7	C=CCOc1ccc2c(C)c(CCCC)c(=O)oc2c1
-25	/	O=S(=O)(NCCOc1nnnn1-c1ccccc1)c1ccc(-n2cnnn2)cc1
/	3.4	C=CCn1c(SCC#N)nnc1-c1ccc2ncccc2c1
2	/	Cn1cc(Br)c(C(=O)O)n1
/	2.5	Cc1cc(NC(=O)c2nn3c(c2Cl)NC(c2ccc(Br)cc2)CC3C(F)(F)F)no1 (stereo unspecified)
2	14	Nc1csc2nc(=O)cnn12
-8	3.2	O=C(CSC1=NCCS1)OCN1C(=O)c2ccccc2C1=O
4	-2.1	CCOC(=O)c1c(N)sc2c(OCC)c(Br)ccc12
-19	/	Cc1ccc(NC(=O)CN(C)C(=O)Cn2c(=O)cnc3ccccc32)cc1
-11	/	CC(C)CCNC(=O)C1=CC=CN2CCS(=O)(=O)N=C12
3	/	CN(CC1COc2ccccc2O1)c1nc(CN2CCOCC2)nc2sc3c(c12)CCCC3 (stereo unspecified)
/	-2.2	Cc1onc(-c2c(Cl)cccc2Cl)c1C(=O)NC1CSC(C)SC1 (stereo unspecified)
-11	/	O=C(NCCc1cn2c(n1)SCC2)NC1CCCCC1
17	1.7	O=C(NCc1nc2ccccc2n1Cc1ccccc1)c1cccs1
/	-1.4	Cc1cc(C)c(C(=O)O)c(CC(C)(C)C(=O)O)c1
10	/	O=C(CCS(=O)(=O)c1cccc2nonc12)Nc1cccc(Cl)c1

Other results follow.
Sa helicase inh	MgrA-DNA mod	canonical_smiles
/	0.6	CSC(N)=Nc1ccc(F)cc1
9	1.5	CC(C)CNCC1COc2ccccc2O1 (stereo unspecified)
2	-0.1	O=C(Nc1ccc(Oc2ccccc2)cc1)c1ccc(Cn2c(=O)[nH]c3ccsc3c2=O)cc1
2	/	COc1ccc(-c2nnc(NC(=O)Cc3ccccc3)o2)cc1
3	0.6	NC(=O)c1ccccc1NC(=O)CCCOc1ccc(Cl)cc1Cl
-10	16	CN(C)c1ccc(CC(=O)c2nc3ccccc3s2)cc1
-3	/	CC(C)(C)c1nnc2sc(-c3cccs3)nn12
-6	-0.8	Nc1nonc1C(=O)OCC(=O)c1ccccc1
/	0.5	CCC(=O)O[C@H]1CCC2C3CCc4cc(O)ccc4C3CC[C@@]21C (stereo partly specified)
/	-1.7	O=C(O)CCC12CC3CC(CC(O)(C3)C1)C2
/	-2.7	CN(CCOC(=O)c1ccccc1)c1cc(C(F)(F)F)nc2ccccc12
9	/	CCCCNC(=O)c1ccc(S(=O)(=O)N(C)C)cc1
13	/	O=C(CCc1nc2ccccc2c(=O)[nH]1)Nc1cccc(N2CCCC2=O)c1
7	0.1	O=C(Nc1cccc(Cl)c1)c1cc2cc3ccc(Cl)cc3nc2o1
-5	/	CC1(NC(=O)c2ccc(C#N)cc2)CCS(=O)(=O)C1 (stereo unspecified)
1	/	O=C(Cc1ccccc1)N/N=C/c1ccco1
5	1.1	O=C(CN1CCN(C(=O)c2ccco2)CC1)Nc1ccccc1C(F)(F)F
8	-0.4	CC(=O)Nc1cc(C)ccc1C
-7	/	COC(=O)c1ccc(CN(C)C)o1
/	1.8	O=[N+]([O-])c1ccc(CNCc2ccc([N+](=O)[O-])cc2)cc1
/	0.4	NNC(=O)C1C(C(=O)NN)C1c1ccccc1 (stereo unspecified)
-10	-0.9	NNC(=O)c1cc(-c2ccccc2)n[nH]1
16	-0.4	COc1ccc(C2CC(=O)N(CC(=O)Nc3c(C)cc(C)cc3C)c3ccccc3S2)cc1OC (stereo unspecified)
-2	0.6	O=C(CNS(=O)(=O)c1ccccc1)Oc1ccc2ccc(=O)oc2c1
/	2.8	N#Cc1c(Cl)cccc1N1CCC(C#N)CC1
17	/	Nc1ccc(OCc2ccccc2Cl)cc1
2	2.0	CC(C)(C)NC(=O)c1ccc(COCC(F)(F)F)o1
7	0.5	CC(C)CC(C(=O)Nc1ccc(S(N)(=O)=O)cc1)N1C(=O)C2C3C=CC(C3)C2C1=O (stereo unspecified)
-37	/	CCCCCn1c(SCC(=O)N2CCC(C(F)(F)F)CC2)n[nH]c1=O
-9	/	O=C(O)c1ccc(NC(=O)C23CC4CC(CC(C4)C2)C3)cc1
18	/	Cn1c(SCc2nc3ccccc3o2)nnc1C(F)(F)F
-11	-1.6	COc1ccc(C(=O)Cc2ccccc2OC(=O)c2ccccc2)cc1
-18	/	COc1ccc(NC(=O)c2cnc(SCC(=O)Nc3cc(C)on3)n(C)c2=O)cc1
/	1.7	CC1(C)Cc2cccc(C(=O)NC3CCN(Cc4ccccc4)CC3)c2O1
-4	-3.9	CCc1cccc(NC(=O)NC2CC(=O)N(C3CCCC3)C2)c1 (stereo unspecified)
-8	1.9	CCc1nc2cc3sc(CC)nc3cc2s1
-2	-0.3	CCCC1C(C#N)=C(N)OC2=C1C(=O)CCC2 (stereo unspecified)
8	/	O=C(CCN1C(=O)/C(=C\c2ccco2)SC1=S)NC1CCCC1
-4	2.5	O=C(CN(Cc1ccco1)C(=O)Cn1nnc(-c2cccs2)n1)NCc1ccccc1
-11	/	COc1ccccc1-n1c(SCc2csc(NC(C)=O)n2)nnc1-c1cccs1
-96	/	COc1ccc(-c2ccc(/C=C(\C#N)c3ccccc3)o2)cc1
-4	2.1	Cc1ccc(OC(=O)c2ccccc2)c(-n2nc3ccccc3n2)c1
/	3.8	O=S1(=O)CC(Sc2cccs2)c2ccccc21 (stereo unspecified)
3	/	COC(=O)c1ccc(-n2ncnc2-c2cccc(Br)c2)cc1
12	/	Cc1nn(-c2ccccc2)c2c1C(c1ccc(Cl)cc1)N1C(=N2)C(=O)Nc2ccccc21 (stereo unspecified)
16	-0.5	O=C(O)CCCC[C@H]1SC[C@H]2NC(=O)N[C@H]21
2	0.5	CCc1ccc2cc(-c3ccccc3)cn2c1
16	/	C/C(=N\NC(N)=S)C1=CC(C)(C)CCC1
-22	/	Cc1cc(C)c(S(=O)(=O)N2CCSc3ccccc32)c(C)c1
-3	/	Cc1cc(NCCO)nc(N2CCOCC2)n1
24	/	O=C1c2ccccc2C(=O)c2c1oc1c3c(ccc21)OCN(CCCN1CCOCC1)C3
-26	/	COc1ccc(C2C(C(=O)NCc3cccnc3)CCC(=O)N2c2cc(OC)c(OC)c(OC)c2)cc1 (stereo unspecified)
4	-2.1	CCOC(=O)c1sc(NC(C)=O)c(C#N)c1C
-22	/	COC(CN=CC1=C(O)CC(C)(C)CC1=O)OC
-3	-1.8	O=C(CSc1nnc(-c2ccc(S(=O)(=O)N3CCOCC3)cc2)o1)c1c[nH]c2ccccc12
11	/	O=S(=O)(c1ccc(Nc2ccc(F)cc2)nc1)N1CCCC1
18	/	CCOC(=O)N1CCN(C(=O)CSc2nnc(C3COc4ccccc4O3)o2)CC1 (stereo unspecified)
-9	/	CNS(=O)(=O)c1cccc(C(=O)NCCCN2CCCC2=O)c1
7	-2.2	Cn1nnnc1SCC(=O)N=C1NC(=O)CS1
-2	/	O=C(Cc1n[nH]c(=O)c2ccccc12)OCc1ccc(F)cc1

Grouped by structure, those above containing a tert-butyl group
Sa helicase inh	MgrA-DNA mod	canonical_smiles
-3	/	CC(C)(C)c1nnc2sc(-c3cccs3)nn12
2	2.0	CC(C)(C)NC(=O)c1ccc(COCC(F)(F)F)o1

(list continues)
Sa helicase inh	MgrA-DNA mod	canonical_smiles
10	-1.0	CCc1c(C)[nH]c2ccccc2c1=O
-11	/	O=C(Nc1ccc2c(c1)OCO2)c1cc(-c2ccccc2)oc1C(F)(F)F
11	1.4	COc1ccc(CCNC(=O)NC2(C(F)(F)F)Oc3ccccc3O2)cc1OC
/	-2.1	COc1ccc(OC(=O)NCCc2ccccc2)cc1
11	-2.1	Cc1ccc(N2C(N)=C(C(N)=O)C(c3ccc(Cl)cc3)C3=C2CC(C)(C)CC3)cc1 (stereo unspecified)
6	/	CC(=O)NS(=O)(=O)c1ccccc1
-3	2.0	COc1ccccc1CC(=O)Nc1cccc(NC(C)=O)c1
18	-3.1	CC(NC(=O)Nc1c[nH]c2ccccc2c1=O)c1ccncc1 (stereo unspecified)
/	-0.1	CNc1cc(C(F)(F)F)nc(-c2ccccn2)n1
-23	/	COc1ccc(C(=O)Sc2nnnn2-c2ccccc2)cc1
-5	/	O=C(Cn1nc(-c2ccccc2)oc1=O)OCC(=O)c1ccccc1
-14	/	COc1ccc(CNC(=O)CN2C(=O)CCc3ccccc32)cc1
/	0.3	CN(C)c1ccc(Cc2ccc(N(C)C)cc2)cc1
/	3.7	COc1ccc(OC)c(S(=O)(=O)/N=C/N(C)C)c1

Entries of single compounds, looked up by structure. Values in the order: Sa helicase inh	MgrA-DNA mod
COc1ccc(C(=O)Sc2nnnn2-c2ccccc2)cc1 reads -23	/
CNc1cc(C(F)(F)F)nc(-c2ccccn2)n1 reads /	-0.1
O=C(Cn1nc(-c2ccccc2)oc1=O)OCC(=O)c1ccccc1 reads -5	/
COc1ccc(CNC(=O)CN2C(=O)CCc3ccccc32)cc1 reads -14	/
CN(C)c1ccc(Cc2ccc(N(C)C)cc2)cc1 reads /	0.3
